# PABP polyA inh = blocks human PABP binding to poly(A) RNA; fluorescence polarization; P11940; 1% of 290,000 active; inhibition, % at 35 µM;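 active means 50% or more with normal probe brightness, or confirmed in later tests; about a fifth of its hits are not listed in these tables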;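 further: calls also rest on retests at 20 µM and on dose response follow-up; controls were probe without protein and protein plus probe with vehicle; some compounds called inactive have numbers as strong as hits; many hits fall short of the cut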
# Target sequence (P11940 whole entry, looked up): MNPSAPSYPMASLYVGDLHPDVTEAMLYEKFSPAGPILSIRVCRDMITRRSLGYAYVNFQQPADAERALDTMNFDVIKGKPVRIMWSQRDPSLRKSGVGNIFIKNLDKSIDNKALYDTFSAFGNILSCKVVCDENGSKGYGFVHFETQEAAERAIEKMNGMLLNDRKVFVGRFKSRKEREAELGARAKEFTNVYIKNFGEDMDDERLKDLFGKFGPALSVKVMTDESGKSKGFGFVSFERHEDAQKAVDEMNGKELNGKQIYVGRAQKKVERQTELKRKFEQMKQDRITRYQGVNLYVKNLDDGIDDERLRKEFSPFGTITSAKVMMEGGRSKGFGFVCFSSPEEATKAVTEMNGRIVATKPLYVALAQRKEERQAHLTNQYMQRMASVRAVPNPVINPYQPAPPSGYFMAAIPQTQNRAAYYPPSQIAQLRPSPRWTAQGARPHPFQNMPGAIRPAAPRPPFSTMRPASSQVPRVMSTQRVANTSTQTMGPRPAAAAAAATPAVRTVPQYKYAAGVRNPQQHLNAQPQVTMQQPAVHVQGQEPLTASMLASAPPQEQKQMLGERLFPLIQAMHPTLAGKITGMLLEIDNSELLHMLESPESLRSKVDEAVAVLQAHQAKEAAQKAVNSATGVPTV
# Rce1 inh = inhibitors of yeast Ras-converting enzyme | calls only | 0.27% of 290,000 active | AID 2563 | Q03530 | yeast membranes, quenched prenylated peptide cleavage fluorescence;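 active means fall in fluorescence gain of 50% or more versus controls, with final raw signal at or below 3038400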;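 further: plate controls were neutral control wells for no effect and wells lacking membranes for full effect; tested at 10 µM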
# Env fusion inh = blocks HIV Env-driven cell-cell fusion; HeLa-JRFL Env/CEM21 cell fusion, luciferase; inhibition, % at 12.3 µM; 1.1% of 360,000 active; AID 651610;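 active means mean replicate inhibition score of at least 50 and every replicate individually at or above 50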;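 further: 0% = plate neutral controls and 100% = maraviroc near 300 nM; one replicate is shown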
# UUG fidelity = yeast start codon fidelity modulation; AID 602363; S. cerevisiae UUG-firefly luciferase reporter, luminescence/redox ratio; 0.13% of 350,000 active; activity score, % at 18.7 µM;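 active means replicate mean at a twofold rise or more, about +100% in these data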;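 further: firefly luciferase made from a UUG start codon reports start codon fidelity; reporter light over untreated wells divided by growth signal over untreated wells; some hits fall short of that in this replicate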
# MT1-MMP act inh = MT1-MMP (human) activation inhibition; P50281; HT1080 RFP-PRO-GFP cells, GFP/RFP ratio fluorescence, overnight; percent of plate control window, DMSO zero; 0.061% of 360,000 active; GFP/RFP ratio change, % at 20 µM;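 active means GFP/RFP ratio change of at least 30% with cell ATP level not reduced by more than half and red fluorescence within 50% of control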; further: strong numbers were not always called active
#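 Assay system: HT1080 RFP-PRO-GFP cells. Benchmarks: DMSO vehicle wells and RFP-L50D-GFP reporter cell wells. Times: overnight cell settling, then overnight compound exposure, 37 °C, 5% CO2. Compound: 20 µM single dose, 1% DMSO. Read-out basis: GFP/RFP fluorescence ratio.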
# CSC inhib = cancer stem cell inhibition; AID 2717; cancer stem cell-like cells viability, luminescence; 1.1% of 300,000 active; inhibition, % at 7.5 µM;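 active means mean at 75% or more and at least half the replicates too; tested in HMLE shEcad cells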;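 further: 0% = median of negative and 100% = median of positive control wells; the first replicate is given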
# eIF4H inh = inhibitors of RNA binding by human eIF4H; 0.94% of 290,000 active; eIF4H fluorescence polarization binding assay; Q15056; inhibition, % at 35 µM;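 active means 50% or more with normal probe brightness, or confirmed in later tests; about a fifth of its hits are not listed in these tables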;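 further: calls also rest on retests at 20 µM and on dose response follow-up; 0% = protein and probe with vehicle and 100% = probe without protein; strong numbers were not always called active; many hits fall short of the cut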
# eIF4H inh retest = second read-out of eIF4H inh, no call of its own (marks repeat the call); inhibition, %; compound at 20 µM; confirmation average;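 mean of two retest wells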
# PABP polyA inh retest = second read-out of PABP polyA inh, no call of its own (marks repeat the call); inhibition, %; compound at 20 µM; confirmation repeats;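 mean of two retest wells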
# MT1-MMP act inh RFP = recorded beside MT1-MMP act inh, whose call it bears; RFP signal change, %; measured here: RFP expression control read;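 0 = vehicle wells; hits needed this value within 50% of zero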
# The depositor's hits bear a star; i = inactive; x = not tested or not shown.
SMILES,PABP polyA inh,Rce1 inh,Env fusion inh,UUG fidelity,MT1-MMP act inh,MT1-MMP act inh RFP,CSC inhib,eIF4H inh,others
C[C@@H]1CN(Cc2cn(C)nc2-c2cccc(Cl)c2)C[C@H](C)O1,7,i,4,x,4,5,-33,-1,
O=C(CCNC(=O)c1ccc(Cl)cc1)Nc1ccc(S(=O)(=O)N2CCOCC2)cc1,x,x,1,3,-2,-1,x,x,
OC1CCN(Cc2ccc(OCc3ccccc3)cc2)CC1,4,i,-12,-18,-4,0,14,2,
C=CCOc1ccc(Br)cc1CNCC,-6,i,-17,-9,-8,-2,-2,-4,
CCCCn1c(N)c(N(CCOC)C(=O)c2sc3ccccc3c2Cl)c(=O)[nH]c1=O,x,x,1,-2,-4,2,-1,x,
COc1ccc(/C=N/Nc2nc(-c3cccnc3)nc3ccccc23)c(OC)c1,-74,i,18,-13,-2,-1,15,-46,
CCn1c(=S)sc2c(=O)n(CC(=O)NCCCc3ccccc3)c(C)nc21,-5,i,8,-19,2,2,-7,1,
COc1cc(NC(=O)NS(=O)(=O)c2ccc(C)cc2)cc(OC)c1,1,i,-7,-17,2,5,17,14,
CCOc1ccc(/C(O)=C/C(=O)C(=O)Nc2ccc(S(=O)(=O)NC(C)=O)cc2)cc1,-1,i,11,x,-1,1,16,-4,
Cc1cccc(N(CC(=O)NC2CCCC2)C(=O)CCC(=O)Nc2ccccn2)c1,8,i,6,-5,-3,3,3,-19,
O=C(NCCCn1ccnc1)C1CCCN(S(=O)(=O)c2cc(Cl)ccc2Cl)C1 (configuration not stated),-3,i,-2,-20,1,-4,-2,-1,
COc1cc(CNc2ncnc3c2ncn3[C@H]2CN(Cc3ccccc3)C[C@@H](COC(C)=O)O2)cc(OC)c1OC,x,x,-1,-4,5,4,x,x,
O=C(CCl)Nc1ccc(Sc2ccc(NC(=O)CCl)cc2)cc1,21,i,-142,x,-9,-8,x,1,
CCOc1ccc(C2C(C(=O)c3cccs3)=C(O)C(=O)N2Cc2cccnc2)cc1 (configuration not stated),4,i,9,x,-2,1,-16,5,
O=c1c2[nH]c3ccc(Br)cc3c2ncn1Cc1ccncc1,2,i,x,x,x,x,-13,2,
CCOc1ccccc1N(CC(=O)NC(C)(C)C)C(=O)Cn1nnc(-c2ccc(C)o2)n1,4,i,22,x,4,5,4,-1,
COc1cccc(-c2c(C(=O)N/N=C/c3cccs3)nnn2-c2nonc2N)c1,15,i,x,-11,-7,-3,-3,6,
CCOC(=O)c1cc(CC)sc1NC(=O)c1cccc(N2C(=O)CCC2=O)c1,-3,i,3,x,3,4,2,7,
CCCNC(=O)c1ccc(SCC(=O)N(CC)CC)c([N+](=O)[O-])c1,-10,i,0,-8,-4,-3,-14,2,
CC1CCCN(S(=O)(=O)c2ccc(NC(=O)CCN3C(=O)c4ccccc4C3=O)cc2)C1 (configuration not stated),1,i,x,0,-1,-3,-12,2,
O=C(Oc1ccc[nH]c1=O)c1cc([N+](=O)[O-])cc([N+](=O)[O-])c1,30*,i,-32,-16,6,2,11,50,eIF4H inh retest=33;PABP polyA inh retest=53*
CCOc1cc(-n2ncc(C#N)c2N)nc(SC)n1,-2,i,-142,2,-1,-1,-11,3,
CNC(=S)N1CCc2cc(OC)c(OC)cc2C1COc1ccc(OC)cc1 (configuration not stated),0,i,4,x,3,-1,-2,-3,
OCCCNC(=S)Nc1ccc(Nc2ccccc2)cc1,70,i,6,-27,3,0,-9,-3,eIF4H inh retest=0;PABP polyA inh retest=11
CCc1c(C(=O)OC)nnc2cc(C)nn12,-3,i,-39,-14,0,6,2,-4,

# Retrieved one by one from the list above:
SMILES,PABP polyA inh,Rce1 inh,Env fusion inh,UUG fidelity,MT1-MMP act inh,MT1-MMP act inh RFP,CSC inhib,eIF4H inh,others
COc1cc(CNc2ncnc3c2ncn3[C@H]2CN(Cc3ccccc3)C[C@@H](COC(C)=O)O2)cc(OC)c1OC,x,x,-1,-4,5,4,x,x,
CCOc1cc(-n2ncc(C#N)c2N)nc(SC)n1,-2,i,-142,2,-1,-1,-11,3,
COc1cccc(-c2c(C(=O)N/N=C/c3cccs3)nnn2-c2nonc2N)c1,15,i,x,-11,-7,-3,-3,6,
CCOC(=O)c1cc(CC)sc1NC(=O)c1cccc(N2C(=O)CCC2=O)c1,-3,i,3,x,3,4,2,7,
OC1CCN(Cc2ccc(OCc3ccccc3)cc2)CC1,4,i,-12,-18,-4,0,14,2,
CCOc1ccc(C2C(C(=O)c3cccs3)=C(O)C(=O)N2Cc2cccnc2)cc1 (configuration not stated),4,i,9,x,-2,1,-16,5,

# Ordered by count of non-hydrogen atoms (falling): part of the list above.
SMILES,PABP polyA inh,Rce1 inh,Env fusion inh,UUG fidelity,MT1-MMP act inh,MT1-MMP act inh RFP,CSC inhib,eIF4H inh,others
COc1cccc(-c2c(C(=O)N/N=C/c3cccs3)nnn2-c2nonc2N)c1,15,i,x,-11,-7,-3,-3,6,
O=C(Oc1ccc[nH]c1=O)c1cc([N+](=O)[O-])cc([N+](=O)[O-])c1,30*,i,-32,-16,6,2,11,50,eIF4H inh retest=33;PABP polyA inh retest=53*
CCc1c(C(=O)OC)nnc2cc(C)nn12,-3,i,-39,-14,0,6,2,-4,

# The list goes on:
SMILES,PABP polyA inh,Rce1 inh,Env fusion inh,UUG fidelity,MT1-MMP act inh,MT1-MMP act inh RFP,CSC inhib,eIF4H inh,others
COC(=O)c1ccc(/C=C/C(=O)OCC(=O)c2ccc[nH]2)cc1,x,x,21,-9,1,-1,-1,x,
O=C(NCC1CCCCN1)c1cc(OCC(F)(F)F)ccc1OCC(F)(F)F (configuration not stated),1,i,x,1,1,1,-14,-1,
CC(=O)NC1=NN(C(C)=O)C(C)(c2cccc([N+](=O)[O-])c2)S1 (configuration not stated),-12,i,-15,x,3,2,-5,3,
CC(=O)Nc1ccc(S(=O)(=O)NNC(=O)COc2cccc3ccccc23)cc1,-9,i,-9,-12,2,3,-12,0,
CCN(CC)CCN(C(=O)CCS(=O)(=O)c1ccccc1)c1nc2c(C)cc(C)cc2s1,2,i,10,2,-3,-2,-1,-9,
CN1c2ccccc2C(O)=C(C(=S)Nc2ccc(Cl)cc2)S1(=O)=O,-7,i,9,-26,14,2,16,-3,
COc1ccc(C)cc1N(CC(=O)N1CCCC1)S(=O)(=O)c1ccccc1,3,x,3,-22,3,3,-13,2,
O=C(C1CC1(c1ccccc1)c1ccccc1)N1CCOCC1 (configuration not stated),-6,i,-20,-9,-4,0,2,-2,
CCC(C)(C(=O)NC1CCCCC1)N(Cc1ccco1)C(=O)c1cnccn1 (configuration not stated),-7,i,13,-20,4,6,-6,-1,
S=c1[nH]c2ccc(Cc3ccc4[nH]c(=S)[nH]c4c3)cc2[nH]1,18,x,-2,-14,3,-3,5,13,
COc1ccc(OC)c(NC(=O)[C@@]2(CC(=O)O)CC(/C=C/c3ccccc3)=NO2)c1,9,i,-10,6,-2,3,-11,2,
CN(C(=O)COC(=O)Cc1c(F)cccc1Cl)c1c(N)n(Cc2ccccc2)c(=O)[nH]c1=O,x,x,-5,-13,4,-1,x,x,
CCOC(=O)C1=CCC(c2cccc(C)c2)N(S(=O)(=O)c2ccc(C)cc2)C1 (configuration not stated),x,x,6,-5,-3,-11,x,x,
CCC(c1nnnn1CCc1ccccc1)N(Cc1ccco1)Cc1cc2cccc(C)c2[nH]c1=O (configuration not stated),0,i,x,-5,-6,-6,17,-5,
C=CCOc1cccc(C2/C(=C(\O)c3ccc(F)cc3)C(=O)C(=O)N2CCN(C)C)c1 (configuration not stated),-1,i,-177,-16,7,-1,0,-9,
CCC(C(=O)NCc1ccco1)n1nc(C)n2c(cc3occc32)c1=O (configuration not stated),-3,i,-2,-14,-2,-2,-8,7,
COc1ccc(C2CC(=O)N(C)c3ccccc3S2)cc1OC (configuration not stated),9,x,-2,x,4,10,-1,-5,
Cc1ccc(CNc2ncc(-c3ccc4c(c3)OCO4)n2C)cc1,20,i,-86,-17,0,4,20,-5,
O=[N+]([O-])c1ccc(Cn2cc(-c3cccc(C(F)(F)F)c3)nn2)cc1,6,i,3,-15,11,2,4,-10,
COc1ccc(CCNC(=O)C2CCN(S(=O)(=O)N3CC(C)CC(C)C3)CC2)cc1OC (configuration not stated),-2,i,x,-29,-2,-9,-13,1,
Cc1sc2ncn(CC(=O)NCC3COc4ccccc4O3)c(=O)c2c1S(=O)(=O)N1CCCCC1 (configuration not stated),-3,i,23,x,-2,2,-6,7,
COc1cc2ncnc(NCc3ccccc3F)c2cc1OC,-1,i,38,7,3,2,45,10,
Cc1nc(-n2cc(F)c(=O)[nH]c2=O)c2nc(C)oc2n1,-2,i,-29,-25,6,5,-17,-11,
O=[n+]1c2c(n([O-])c3cc(F)c(F)cc31)CCCC2,33,i,12,-11,0,3,2,66*,eIF4H inh retest=80*;PABP polyA inh retest=39
O=c1cc(-c2c(O)c3ccccc3n(Cc3ccccc3)c2=O)[nH][nH]1,-2,i,-3,x,4,5,15,39,
CC1(C)CC(=O)C(C=NC2CCCCC2)=C(O)C1,-8,i,x,-18,0,4,-9,-5,
CCN(CC)c1nc2c(s1)C(=O)NCCC2,1,i,x,x,-4,1,2,-2,
COC(=O)c1ccc(NC(=O)COc2ccc(C3C(C#N)=C(N)Oc4c3ccc3ccccc43)cc2OC)cc1 (configuration not stated),0,i,-13,-13,-8,-5,-11,-6,

# From PubChem
